Screens (PubChem)
OX1R antag-1: blocks the human orexin 1 receptor. O43613. OX1R-expressing cells, FRET antagonist read-out. inhibition, % at 6.6 µM. hit rate 1.8% among 330,000. AID 485270; in the data active means inhibition mostly above about 38%, no sharp cut-off; inactive means mostly below about 40%;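 further: 0% = agonist challenge alone and 100% = reference antagonist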
Target sequence (O43613 whole entry, looked up): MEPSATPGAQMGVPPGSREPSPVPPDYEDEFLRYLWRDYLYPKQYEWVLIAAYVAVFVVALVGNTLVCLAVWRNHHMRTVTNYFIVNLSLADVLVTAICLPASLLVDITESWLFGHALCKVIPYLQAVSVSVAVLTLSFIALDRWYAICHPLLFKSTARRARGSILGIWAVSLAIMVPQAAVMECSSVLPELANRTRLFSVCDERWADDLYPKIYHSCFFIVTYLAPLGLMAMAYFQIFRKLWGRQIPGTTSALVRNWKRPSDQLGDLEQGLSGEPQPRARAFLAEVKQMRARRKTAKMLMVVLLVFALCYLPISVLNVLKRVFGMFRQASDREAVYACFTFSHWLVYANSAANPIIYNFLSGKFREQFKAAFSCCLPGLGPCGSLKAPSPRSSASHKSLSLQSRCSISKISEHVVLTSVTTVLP
OX1R antag-2: blocks the human orexin 1 receptor. inhibition, % at 5 µM. AID 434989. hit rate 0.43% among 330,000. CHO/OX1R cells, Fluo-8 calcium fluorescence, orexin A;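 active means inhibition above its plate's threshold, mean inhibition of all tested compounds on the plate plus 3 SD, cut at about 37% in these data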;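 further: 0% = orexin A challenge wells and 100% = SB-334867-A antagonist wells; not every result past the cut was called active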
Starred values were filed as active, the others as inactive.

OX1R antag-1,OX1R antag-2,SMILES
30,-27,Cc1ccccc1/C(N)=N/OC(=O)N1c2ccccc2Sc2ccccc21
6,-7,Cc1ccnc(NS(=O)(=O)c2ccc(NC(=O)C3COc4ccccc4O3)cc2)n1 (stereo not given)
18,-1,O=C(c1ccccc1)c1cc2ccc(O)cc2oc1=O
20,-20,CCOc1cccc(C(=O)NNC(=O)C2C3C=CC(C3)C2C(=O)O)c1 (stereo not given)
-5,-22,Cc1cc(C)cc(N2C(N)=NC(N)=NC2c2cccc(Cl)c2)c1 (stereo not given)
38,-30,Cc1nc(C)c(C(=O)N2CCCC(C(=O)c3ccc4ccccc4c3)C2)s1 (stereo not given)
19,1,N#Cc1ccc(-c2csc(NNC(=O)c3ccccc3)n2)cc1
18,-36,CCCCSc1nc(NCc2ccco2)c2c3c(sc2n1)COC(C)(C)C3
7,-4,N#Cc1nccnc1N1CCN(C(=O)Nc2ccccc2)CC1
6,-11,CCCN1C(=O)/C(=C/c2ccc(OCc3ccc(C(=O)O)cc3)c(OC)c2)NC1=S
-7,9,Cc1cc(C)nc(CCNC(=O)C2CCC(=O)N(Cc3ccccc3F)C2)n1 (stereo not given)
20,-31,COc1ccc(/C=C/C(O)=C2/C(=O)N(C)C3(C)CC2c2ccccc2O3)cc1 (stereo not given)
30,-24,COc1cc(OC)c2c(C)cc(=O)oc2c1
0,-39,O=C(Oc1cccc2ccccc12)C1CC1
32,-15,O=[N+]([O-])c1ccc(N2CCCCC2)cc1SCCO
14,-9,COC(=O)Cn1c(=NC(=O)c2ccc(OC)c(OC)c2)sc2cc(OC)ccc21
18,-21,CCOc1cc(NC(=S)N2CCC(C(N)=O)CC2)c(C(=O)OC)cc1OCC
0,-4,CCOc1ccc(Nc2nc(Cc3nnc(SCC(=O)NC4CCCC4)n3C)cs2)cc1
3,-16,CC(=O)Oc1ccc(C2C3=C(CC(C)(C)CC3=O)Nc3cc4c(cc32)OCCO4)cc1 (stereo not given)
10,-12,COc1ccc(OC)c(CNC(=O)C2CCC(=O)N2C(C)C)c1 (stereo not given)

Retrieved by compound from the list above (6):
OX1R antag-1,OX1R antag-2,SMILES
19,1,N#Cc1ccc(-c2csc(NNC(=O)c3ccccc3)n2)cc1
18,-21,CCOc1cc(NC(=S)N2CCC(C(N)=O)CC2)c(C(=O)OC)cc1OCC
6,-11,CCCN1C(=O)/C(=C/c2ccc(OCc3ccc(C(=O)O)cc3)c(OC)c2)NC1=S
6,-7,Cc1ccnc(NS(=O)(=O)c2ccc(NC(=O)C3COc4ccccc4O3)cc2)n1 (stereo not given)
30,-27,Cc1ccccc1/C(N)=N/OC(=O)N1c2ccccc2Sc2ccccc21
0,-39,O=C(Oc1cccc2ccccc12)C1CC1

Next section:
OX1R antag-1,OX1R antag-2,SMILES
10,-10,CC1(C)CN=C(NC2CCCCC2)S1
10,-7,CONc1nc2nonc2nc1NOC
5,-2,OCCNCCNCc1ccccc1OCc1ccccc1
46,-11,COc1ccc(CCNC(=O)CCC(=O)Nc2ccccc2[N+](=O)[O-])cc1OC
17,-4,CCOc1ccc(NC(=O)CSCC(=O)O)cc1
16,-14,COc1ccc(/C=C(\C)c2nc(C)c(-c3ccccc3)c(=O)[nH]2)cc1
4,-13,CCSc1ccccc1C(=O)N=C1NC(=O)CC2C(=O)NCCN12 (stereo not given)
22,-16,CCC(=O)Nc1cc(NC(=O)CSc2nnc(C(C)C)n2CC)ccc1C
-1,-13,O=C(NCc1cccs1)C1CC(=O)N(c2ccc(Cl)cc2)C1 (stereo not given)
13,-24,O=C(CSc1nnc(-c2cnccn2)n1Cc1ccco1)c1ccc(Cl)c(Cl)c1
16,-18,Cc1c(C(=O)NCCSCc2cccc(C(F)(F)F)c2)cnn1-c1ccc(F)cc1
0,1,CCOC(=O)CC1(NC(=O)c2cc(COc3ccc(F)c(F)c3)on2)CCCCC1
5,-10,O=C(Cc1cn2ccsc2n1)NCc1ccccc1
13,-31,COc1ccc(S(=O)(=O)N(CC(=O)NCCC(C)C)c2ccccc2)cc1OC
14,-30,c1ccc(Cc2noc(CN3CCN(Cc4ccc5c(c4)OCO5)CC3)n2)cc1
4,-22,Cc1cccc(N2C(=O)CS/C2=N\NC(=O)c2ccc(Cl)cc2)c1C
11,-18,CC(C)Oc1ccc(S(=O)(=O)N2CCCCC2)cc1NC(=O)CN1C(=O)NC2(CCCC2)C1=O
13,-33,CC1CCC(C(C)C)C(OP(=O)(c2ccccc2)C(O)c2ccncc2)C1 (stereo not given)
41,5,Cc1ccc(-n2nnnc2Sc2nc([N+](=O)[O-])nn2C)cc1
9,-10,COc1ccc(N2CCN(C3CCCN(Cc4ccccc4OCCO)C3)CC2)cc1 (stereo not given)
27,-6,CCn1c(Cc2ccc(OC)cc2)nnc1SCC(=O)Nc1cccc(C(=O)OC)c1
29,-6,Cc1ccc(NC(=O)c2ccc(S(=O)(=O)C(F)F)cc2)c(C)c1
26,-37,COc1cccc(C2c3[nH]c4ccccc4c3CCN2Cc2ncc[nH]2)c1 (stereo not given)
-3,-10,O=C(NCc1ccccn1)Nc1cccc(F)c1
14,-25,Cc1ccc(Nc2cc(C(=O)NCCCN3CCOCC3)c3ccccc3n2)c(C)c1
23,-12,COc1ccc(S(=O)(=O)N2CCCC2C(=O)NCC(=O)Nc2cccc(Cl)c2C)cc1 (stereo not given)
34,6,COc1ccc(/C=N\NC(=O)C2C(=O)NCC2c2ccccc2)cc1O (stereo not given)
-4,-12,Cc1onc(-c2ccccc2Cl)c1C(=O)N(Cc1ccccc1)C(C)C
10,2,Cc1ccc2[nH]c(-c3ccccc3)c(CN(C)C)c(=O)c2c1
8,-3,O=C(Nc1nccs1)c1c(O)c2cccc3c2n(c1=O)CCC3
32,0,Cc1ccc(C2=NN(C(=O)CCl)C(c3cccs3)C2)o1 (stereo not given)
11,-15,COc1cccc(C2=NOC(C(=O)Nc3cc(C)on3)C2)c1 (stereo not given)
1,-18,Cc1cccnc1NC(=O)CNC(=O)COc1ccccc1
15,-4,CC(=O)Nc1ccc(-n2cc(-c3ccccc3)[nH]c2=S)cc1
37,-5,CCN(CC)S(=O)(=O)c1ccc2c(c1)C(=NO)c1cc(S(=O)(=O)N(CC)CC)ccc1-2
13,2,COc1ccc(S(=O)(=O)N2CCC(NC(=O)c3ccccc3)CC2)cc1
-1,-10,O=C(NCN1C(=O)C2C3C=CC(C3)C2C1=O)Nc1nccs1 (stereo not given)
19,-28,COc1ccc(CCNC(=O)CN(c2cc([N+](=O)[O-])ccc2OC)S(C)(=O)=O)cc1
6,13,Cc1ccccc1N/C=C/C(=C(C#N)C#N)N(C)C
18,0,CC(C)Cn1c(N)c(C(=O)COC(=O)/C=C/c2cccs2)c(=O)n(C)c1=O
3,-7,CCCCN(CC)CCNC(=O)Cn1cc2c(n1)-c1c(oc(C(=O)N3CCCC3)c1C)CC2
-1,-69,CCn1cc(C(=O)N(C)c2ccccc2F)c2cc(OC)c(OC)cc2c1=O
15,-34,Cc1ccc2[nH]c(=O)c(C(c3nnnn3C3CCCC3)N(Cc3cccnc3)Cc3ccco3)cc2c1 (stereo not given)
23,-6,COc1ccccc1NS(=O)(=O)c1cc(NC(=O)c2ccccc2F)ccc1N1CCOCC1
14,-9,CC(C)CN(C(=O)COC(=O)CNC(=O)c1ccccc1)c1c(N)n(Cc2ccccc2)c(=O)[nH]c1=O
7,-6,COc1cccc(-c2ccc(NC(=O)C3CCCN(Cc4ccco4)C3)cc2)c1 (stereo not given)
39,-18,Cc1nn(C)c(C)c1/C=C/C(=O)c1ccccc1
6,-31,CC(C)(C)c1ccc(Oc2ncccc2NC(=O)c2cccs2)cc1
14,-10,Cn1c(CN2CCN(CC#N)CC2)c(C#N)c2ccccc21
17,6,CCN(CC)CCCNC(=O)c1ccc2c(=O)n(Cc3ccc4c(c3)OCO4)c(=S)[nH]c2c1
0,10,CCn1c(SCC(=O)c2ccc(NC(C)=O)c(OC)c2)nnc1-c1ccc(NS(C)(=O)=O)cc1
10,-13,COCCn1nnnc1C(c1ccc2ncccc2c1)N1CCc2ccccc21 (stereo not given)
9,-32,COc1ccc(N2C(=O)/C(=C\c3ccco3)N=C2SCC(=O)NC(C)C)cc1Cl
11,-6,CCCNS(=O)(=O)c1ccc(CCC(=O)N2CCCCC2)cc1
35,-22,Cc1sc(Cc2nc(O)cs2)nc1-c1ccccc1
21,-21,CC(NC(=O)c1cc(COc2c(F)cccc2F)on1)c1cnn(-c2ccccc2)c1 (stereo not given)
22,-18,Cc1nn(Cc2ccccc2)c(Cl)c1C(=O)OC1CCOC1=O (stereo not given)
12,-12,CCc1ccc(/C=N/NC(=O)c2ccc(OC3CCCC3)cc2)s1
39,-14,O=C(Cc1csc(-c2ccccc2)n1)NCc1ccccc1F
37,-12,CCCCCN1C=CC(=C2C(=O)c3ccccc3C2=O)C=C1

Sorted by count of non-hydrogen atoms (lowest first): part of the list above.
OX1R antag-1,OX1R antag-2,SMILES
6,13,Cc1ccccc1N/C=C/C(=C(C#N)C#N)N(C)C
32,0,Cc1ccc(C2=NN(C(=O)CCl)C(c3cccs3)C2)o1 (stereo not given)
1,-18,Cc1cccnc1NC(=O)CNC(=O)COc1ccccc1
13,2,COc1ccc(S(=O)(=O)N2CCC(NC(=O)c3ccccc3)CC2)cc1
6,-7,Cc1ccnc(NS(=O)(=O)c2ccc(NC(=O)C3COc4ccccc4O3)cc2)n1 (stereo not given)
14,-9,CC(C)CN(C(=O)COC(=O)CNC(=O)c1ccccc1)c1c(N)n(Cc2ccccc2)c(=O)[nH]c1=O

Later entries
OX1R antag-1,OX1R antag-2,SMILES
1,3,Fc1ccc(-c2nnc(-c3ccc(Cl)cc3)o2)cc1
6,2,CCc1nnc(NC(=O)CN2CCN(S(C)(=O)=O)CC2)s1
1,6,O=C(Nc1c(F)cc(F)cc1Br)c1cccnc1
5,-22,CC(=O)N(c1ccccc1)C1CC(C)N(C(=O)c2ccccc2)c2ccccc21 (stereo not given)
1,-4,CC(=O)NCCCC(=O)NNC1CC(=O)N(c2cccc(Cl)c2)C1=O (stereo not given)
17,0,O=C(Nc1ccc2c(c1)OCCO2)N1CCN(Cc2ccccc2)CC1
15,-29,O=C1COc2ccc(C(=O)COC(=O)c3ncc(Cl)c(Cl)c3Cl)cc2N1
16,-85,C/C(NCCN1CCOCC1)=C(\C#N)C(N)=O
19,-14,COc1ccccc1NS(=O)(=O)c1cccs1
20,-6,O=C1C2CC=CCC2C(=O)N1Cc1nnc(-c2ccc(Cl)cc2)o1 (stereo not given)
-1,-1,O=C(O)c1ccc(NS(=O)(=O)c2cccc(C(=O)Nc3cccc(C(=O)O)c3)c2)cc1
3,-24,COc1ccc(CN2CCC(C(=O)c3ccc(F)cc3)CC2)cc1
7,3,Cc1ccc(NS(=O)(=O)c2cc(C(=O)Nc3cccc([N+](=O)[O-])c3)ccc2C)cc1
5,2,N=C1C(c2ccccc2)=C(O)CN1NC(=O)c1ccccc1
4,-8,O=C(NC1CCCCC1)c1ccccc1NC(=S)NC(=O)C1CCC1
11,3,O=C(COC(=O)c1cncc(Br)c1)NC1CCCCCC1
10,-1,O=C1COc2ccc(C(=O)C[n+]3cccc(O)c3)cc2N1
18,5,O=C(CCc1ccccc1)NNC(=O)Nc1ccc(Br)cc1

Single records, as listed above. Values in the order: OX1R antag-1 | OX1R antag-2
COc1ccc(CN2CCC(C(=O)c3ccc(F)cc3)CC2)cc1 across the screens: 3 | -24
O=C(NC1CCCCC1)c1ccccc1NC(=S)NC(=O)C1CCC1 across the screens: 4 | -8

An excerpt from above in order of their number in OX1R antag-1, smallest number first:
OX1R antag-1,OX1R antag-2,SMILES
1,3,Fc1ccc(-c2nnc(-c3ccc(Cl)cc3)o2)cc1
7,3,Cc1ccc(NS(=O)(=O)c2cc(C(=O)Nc3cccc([N+](=O)[O-])c3)ccc2C)cc1
10,-1,O=C1COc2ccc(C(=O)C[n+]3cccc(O)c3)cc2N1
11,3,O=C(COC(=O)c1cncc(Br)c1)NC1CCCCCC1
15,-29,O=C1COc2ccc(C(=O)COC(=O)c3ncc(Cl)c(Cl)c3Cl)cc2N1

These rows are one share of the data; most or all hits stand in other tables.
